Source: PubChem
RanGTP-Imp inh: inhibitors of RanGTP-importin-beta interaction, primary screen, biochemical, FRET, CFP-Ran, YFP-importin-beta, homogeneous; cell-free CFP-Ran/YFP-importin-beta FRET ratio; Ran GTPase (GTP-bound) - importin-beta complex; AID 2216, 2009; inhibition, % (no concentration beside the values); 300,000 tested, 1.1% active;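 active = most replicates above 15%; inconclusive = exactly half above 15%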;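 note: 0% = DMSO wells and 100% = Ran loaded with GDP instead of GTP; wells of about 40 µL received 100 nL stock; the first replicate is given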
E coli growth: E. coli growth inhibition, primary screen, OD600 | Escherichia coli growth, 23 h; active compounds read low | OD600 absorbance (test concentration not listed) | 330,000 tested, 0.21% active;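 active = OD600 absorbance below the run mean of sample wells minus 3.6 SD, in any replicate, cut at about 0.56 in these data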;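 note: stock transfer was 300 nL into about 60 µL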
HNF4A DNA FP: change in binding of human HNF4A to DNA, primary screen, biochemical, fluorescence polarization, FITC-DNA; Hepatocyte nuclear factor 4-alpha (Homo sapiens), P41235; 1 h; activity change, % at 10 µM; 360,000 tested, 0.3% active; AID 1224865, 2016; in the data active = activity change above about 30%, passing the limit was not always enough;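 note: controls were the assay level and a saturating level of protein; the project sought stronger binding though the title names inhibitors; some compounds called inactive have numbers as strong as hits; positive values seem to mean higher polarization but the record does not say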
Target sequence (P41235 whole entry, looked up): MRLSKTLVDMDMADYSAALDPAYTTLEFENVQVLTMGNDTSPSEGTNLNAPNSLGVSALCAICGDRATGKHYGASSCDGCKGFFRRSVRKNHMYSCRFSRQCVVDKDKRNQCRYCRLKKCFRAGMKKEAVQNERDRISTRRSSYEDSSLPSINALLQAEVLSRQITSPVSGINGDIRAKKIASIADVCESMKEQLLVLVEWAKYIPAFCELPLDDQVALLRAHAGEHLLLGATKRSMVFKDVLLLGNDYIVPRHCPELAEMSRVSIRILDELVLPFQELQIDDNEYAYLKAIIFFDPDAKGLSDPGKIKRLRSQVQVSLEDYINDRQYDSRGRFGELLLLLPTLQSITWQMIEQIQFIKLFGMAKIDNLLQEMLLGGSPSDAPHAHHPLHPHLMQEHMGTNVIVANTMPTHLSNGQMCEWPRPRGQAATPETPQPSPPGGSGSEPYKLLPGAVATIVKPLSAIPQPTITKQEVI
UCH37 inh: inhibitors of human UCH37 deubiquitinase, primary screen, biochemical, Ub-AMC cleavage, fluorescence; purified proteasome/UCH37; 330,000 tested, 0.33% active; inhibition, % (no concentration beside the values);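 active = mean of two replicates above 20%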;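 note: 0% = compound-free wells with enzyme and 100% = wells lacking proteasome; stock transfer was 100 nL into about 20 µL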
Target sequence (Q9Y5K5 whole entry, looked up): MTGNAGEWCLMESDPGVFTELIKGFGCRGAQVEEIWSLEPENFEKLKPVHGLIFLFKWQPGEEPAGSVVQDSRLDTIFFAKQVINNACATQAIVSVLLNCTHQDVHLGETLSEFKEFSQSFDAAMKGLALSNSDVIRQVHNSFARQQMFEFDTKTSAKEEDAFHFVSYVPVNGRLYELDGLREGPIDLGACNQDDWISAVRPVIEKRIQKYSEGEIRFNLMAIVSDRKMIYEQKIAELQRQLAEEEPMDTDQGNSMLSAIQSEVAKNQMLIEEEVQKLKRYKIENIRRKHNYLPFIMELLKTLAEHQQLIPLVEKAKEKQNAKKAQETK
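Material: Human UCH37 enzyme supplied as purified proteasome complex | Schedule: 30 min compound-proteasome preincubation then 25 min substrate reaction, room temperature | Detection: AMC fluorescence from Ub-AMC cleavage, excitation 355 nm, emission 460 nm | Benchmarks: Wells without proteasome as full block, compound-free enzyme plus substrate as uninhibited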
Vif A3G: inhibitors of Vif binding to APOBEC3G peptide, primary screen, biochemical, TR-FRET, GST-Vif 1-94, biotin-A3G peptide, dose response retest (AID 1117319) | 260,000 tested, 0.57% active | TR-FRET GST-Vif / biotin-A3G peptide binding; higher % means a stronger effect; test concentration not given here; strong numbers were not always called active | Virion infectivity factor (Human immunodeficiency virus type 1 group M subtype B (isolate … | one-dose inhibition, %; IC50 in µM for titrated hits;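 active = above the screen mean plus three standard deviations and confirmed in dose response; inconclusive = results disagree or hit not tested in dose response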;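 note: Vif residues 1-94 fused to GST binding biotinylated APOBEC3G peptide 110-148; 0% = full assay without inhibitor and 100% = GST in place of GST-Vif; retest series ran down from 100 µM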
AF4-AF9 inh: inhibitors of AF4 peptide binding to AF9, primary screen, biochemical, AlphaScreen, biotin-AF4 peptide, FLAG-AF9, single point; Protein AF-9 (Homo sapiens), P42568; inhibition, % at 10 µM; 350,000 tested, 0.47% active;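 active = every replicate reaching a set inhibition limit, whatever the replicate mean, cut at about 25% in these data; inconclusive = mean inhibition reaches that limit but some replicates miss it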;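 note: 0% = plate neutral control median and 100% = total signal loss; the record names both 10 and 1 µM as test concentration; the first replicate is given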
FGF22 binding: binders of human FGF22 protein, primary screen, FGF22 synaptogenesis inhibitor project, biophysical, thermal shift, single point; recombinant FGF22 thermal shift, SYPRO orange fluorescence; percent of sucrose octasulfate shift, DMSO zero; AID 651658, 2012; 340,000 tested, 1.5% active; Fibroblast growth factor 22 (Homo sapiens), Q9HCT0; calls only at 9.99 µM;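 active = melting point raised past a set limit in the mean and every replicate; inconclusive = no clear call; three in four hits are not shown here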
Target sequence (Q9HCT0 whole entry, looked up): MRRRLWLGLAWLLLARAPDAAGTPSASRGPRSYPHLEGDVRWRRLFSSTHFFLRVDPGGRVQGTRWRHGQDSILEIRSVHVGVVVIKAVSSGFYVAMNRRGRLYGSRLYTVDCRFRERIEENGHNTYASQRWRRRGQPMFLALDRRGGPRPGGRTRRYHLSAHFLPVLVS
* marks the source's active call; other numbers are inactive results; i = inactive; ? = inconclusive; . = not tested or not shown; & = joins results of further samples. These rows are one share of the data; the hit share may differ from the screen's.

The line under a structure holds: RanGTP-Imp inh	E coli growth	HNF4A DNA FP	UCH37 inh	Vif A3G	AF4-AF9 inh	FGF22 binding
CC(C)Cc1nnc(NS(C)(=O)=O)s1
    1.4	0.72	0.9	0.1	?	.	.
COc1ccc(CCN(C)C2CCCN(C(=O)CCC(F)(F)F)C2)cc1OC (stereo unspecified)
    -0.2	0.66	4.1	-1.7	.	-1.6	i
COc1ccc(NS(=O)(=O)c2ccc3oc(Nc4ccc5c(c4)OCCO5)nc3c2)cc1
    5.1	0.77	-0.9	1.8	-5%&3%	.	.
O=C(NCC1CCCO1)c1ccc(C(=O)NCC2CCCO2)cc1 (stereo unspecified)
    -3.3	0.69	0.1	4.8	2%	.	.
COc1ccc(O)c(C(=O)C2c3ccccc3C(=O)N2c2ccc(C)cc2)c1 (stereo unspecified)
    1.8	0.65	2.8	-5.4	20µM*	0.1	i
O=C(COc1ccccc1)Nc1ccc(Cl)cn1
    5.5	0.65	2.0	-3.5	.	0.9	i
O=C(CCS(=O)(=O)c1ccccc1)NCc1ccccc1
    0.9	0.67	5.1	-0.1	6%	-1.5	i
CCc1ccc(CN2CCC(C(=O)Nc3ccc(-n4nc(C)cc4C)cc3)CC2)o1
    -0.2	0.67	0.8	1.1	1%	2.2	i
CSc1ccccc1C(=O)Nc1ccc(C)cc1C
    1.0	0.68	1.7	1.3	1%	-0.3	i
Cc1ccc(CCNC(=O)c2ccc(NC3=NC4CS(=O)(=O)CC4S3)cc2)cc1 (stereo unspecified)
    4.7	0.67	-4.0	4.6	.	-0.4	i
COc1ccc(NC(C)=O)cc1NC(=O)CSc1nc2ncccc2[nH]1
    -2.4	0.72	0.5	2.1	22%	.	.
COc1cccc(C(=O)NCCS(=O)(=O)NCc2ccco2)c1
    ?	0.65	2.0	4.9	3%	-9.5	i
COc1ccc2oc(C(=O)OCC(=O)NC(C)c3ccccc3)c(C)c2c1 (stereo unspecified)
    2.6	0.7	-4.9	-31	-3%	-3.1	i
COc1ccccc1C1CCN(Cc2ccccc2)CC1
    -0.5	0.67	-3.3	2.5	-9%	0.0	i
CCOc1ccc(N2C(=O)c3ccc(C(=O)OCc4c(C)noc4C)cc3C2=O)cc1
    -1.8	0.74	1.1	6.7	?	.	.
Oc1ccccc1-c1n[nH]c(-c2ccccc2O)n1
    .	.	-4.3	.	.	0.3	i
CSCCC(NC(=O)c1cccc(S(=O)(=O)N2CCOCC2)c1)C(=O)Nc1ccc(F)cc1 (stereo unspecified)
    1.9	0.65	2.6	-0.1	.	.	.
CNc1cc(-c2ccc(CC#N)cc2)ncn1
    .	.	-4.0	.	.	-0.6	i
CC(=O)Nc1ccc(N2C(=O)CC(Sc3nc(C)cc(C)n3)C2=O)cc1 (stereo unspecified)
    -1.8	0.63	1.1	0.8	2%	0.8	i
CCOC(=O)c1cc2sc(C)cc2n1CCCN1C(=O)c2ccccc2C1=O
    3.0	0.76	-5.1	0.8	13%	.	.
Cc1cc(C)c(S(=O)(=O)N2CCCC(C(=O)NC3CC3)C2)c(C)c1 (stereo unspecified)
    5.2	0.69	-3.0	1.7	.	-3.9	i
O=C(CSc1ccccc1F)NCC(c1cccs1)N1CCOCC1 (stereo unspecified)
    .	0.69	2.4	2.0	.	-2.0	i
O=C(c1ccc(Cl)cc1)c1cc(-c2ccccn2)c(N2CCOCC2)s1
    -0.9	0.66	-0.3	-22	-17%	.	.
Cc1cccnc1NCc1ccc(O)c2ncccc12
    4.5	0.67	2.7	0.9	12%	.	.
O=c1[nH]c(=S)[nH]c2sc3c(c12)CCCCCC3
    2.1	0.61	-2.6	7.6	-5%	-0.7	i
COc1cc2[nH]c(=S)n(Cc3ccccc3)c(=O)c2cc1OC
    -39	0.72	-0.9	2.2	2%	0.2	i
Cc1cccc(NC(=O)COC(=O)c2ccc(S(=O)(=O)N3CCCC3)cc2)c1
    .	0.7	-4.8	3.2	-1%	2.7	i
CC(C)c1ccc(OCC(=O)NN2C(=O)c3ccccc3C2=O)c(Br)c1
    -1.9	0.71	0.8	4.1	.	1.0	.
CC1Cc2cc(S(=O)(=O)CCC(=O)NCc3ccco3)ccc2N1C(=O)C1CC1 (stereo unspecified)
    -0.3	0.68	-4.2	-1.2	3%	-0.7	i
CC(=O)c1cccc(NS(=O)(=O)N(C)C)c1
    -4.9	0.77	50*	0.3	7%	.	.
O=C(COC(=O)/C=C/c1ccc(C(F)(F)F)cc1)NCCC1=CCCCC1
    1.9	0.69	3.3	0.5	?	-0.1	i
CC[C@H]1CCCCc2ccccc2[C@@H](C(=O)C[C@@H](O)CC(C)=O)OC1=O
    .	.	0.7	.	-4%	0.4	i
CCN(C(=O)COC(=O)C1CCN(S(=O)(=O)c2cccs2)CC1)c1ccccc1
    0.2	0.68	-0.8	1.3	.	-1.0	i
CCn1cc(Cl)c(C(=O)N2N=C(c3ccc4ccccc4c3)CC2c2ccccc2O)n1 (stereo unspecified)
    -1.4	0.72	5.2	1.9	6%	6.5	i
Fc1ccc2nc(C3CCCCN3Cc3nc(CC4CC4)no3)[nH]c2c1 (stereo unspecified)
    -1.0	.	2.2	.	5%	0.2	i
COC(=O)c1ccc(CN2CCc3ccc(NC(=O)c4ccncc4)cc3C2)cc1
    -13	0.7	-1.0	4.1	.	0.5	i
CCOc1cc(/C=N/Nc2nnc(C)n2N)ccc1OC(C)=O
    -1.6	.	2.4	.	6%	4.7	i
CC(=O)c1cccc(S(=O)(=O)NCCCN2CCOCC2)c1
    .	0.7	-1.4	3.1	19%	-0.8	i
CCCNC(=O)CN1CCN(S(=O)(=O)c2ccc(Br)s2)CC1
    .	0.66	2.8	-1.1	.	0.1	i
CC1=NNC(=O)C1CCC(=O)N/N=C/c1ccc(C)cc1 (stereo unspecified)
    -1.8	.	.	.	8%	-3.5	i

Entries of single compounds, quoted from the list.
Cc1cc(C)c(S(=O)(=O)N2CCCC(C(=O)NC3CC3)C2)c(C)c1 (stereo unspecified) across the screens: RanGTP-Imp inh = 5.2; E coli growth = 0.69; HNF4A DNA FP = -3.0; UCH37 inh = 1.7; Vif A3G = .; AF4-AF9 inh = -3.9; FGF22 binding = i
COc1cc2[nH]c(=S)n(Cc3ccccc3)c(=O)c2cc1OC across the screens: RanGTP-Imp inh = -39; E coli growth = 0.72; HNF4A DNA FP = -0.9; UCH37 inh = 2.2; Vif A3G = 2%; AF4-AF9 inh = 0.2; FGF22 binding = i

Next section
The line under a structure holds: RanGTP-Imp inh	E coli growth	HNF4A DNA FP	UCH37 inh	Vif A3G	AF4-AF9 inh	FGF22 binding
OCC[C@H]1C[C@H](O)[C@@H](O)[C@]2(CCCCO2)O1
    4.0	.	1.4	4.5	.	-2.5	i
CC(=O)c1cccc(N(C(=O)CNC(=O)c2ccco2)C(C(=O)NCC2CCCO2)c2ccccc2)c1 (stereo unspecified)
    2.5	0.67	-2.1	3.3	.	10	i
O=C(/C=C/c1c(Cl)cccc1Cl)NCCCn1ccnc1
    5.9	0.62	1.9	6.0	.	2.4	i
COc1ccc(-n2nc(C(=O)NCC(=O)NCCN(C)C)c3ccccc3c2=O)cc1
    1.3	0.67	0.0	1.6	-3%	-1.6	i
Cc1ccc(CNC(=O)[C@H]2O[C@@H](n3cnc4c(N)ncnc43)[C@H](O)[C@@H]2O)o1
    .	.	-0.4	.	.	0.7	i
CCOC(=O)N1CCN(CC(O)COc2ccc(CC)cc2)CC1 (stereo unspecified)
    -0.4	0.66	-1.6	3.1	-3%	5.6	i
COc1ccc(NC(=O)CC#N)cc1OC
    4.1	0.72	4.1	3.9	0%	.	.
CC(C)(NO)/C(=N/O)c1cccs1
    -4.4	.	-3.9	.	-3%	.	.
CC1(Oc2ccccc2)CCN(Cc2csc3ccccc23)C1 (stereo unspecified)
    .	.	-1.9	.	.	5.0	i
COc1ccc2nc(N/C(N)=N/S(C)(=O)=O)nc(C)c2c1
    6.1	0.68	-0.3	-218	-7%	0.0	i
O=C(N/N=C/c1ccncc1)c1nc2ccccc2c(=O)[nH]1
    0.4	.	-2.1	.	.	6.6	i
COc1ccc(C(=O)CSc2nnc(CNc3nc(-c4ccccc4)cs3)n2C)cc1
    -1.6	0.7	0.8	2.0	-1%&-1%	.	.
Cc1cccc(C(=O)N[C@H](C(=O)Nc2nc(C)cs2)C(C)C)c1
    -0.6	0.68	0.9	6.0	-3%	2.6	i
CC(=O)N1Cc2cc(C(=O)NCC(F)(F)F)nc(-c3cccc(-c4cccnc4)c3)c2[C@H]1CCO
    .	.	-2.4	.	.	-2.4	i
O=C(O)C1CC=CCC1C(=O)NNS(=O)(=O)c1ccccc1 (stereo unspecified)
    4.3	0.68	3.7	0.3	-1%	-0.9	i
CC(=O)c1cccc(NC(=S)NC2CC2)c1
    -1.9	0.71	0.9	4.0	.	2.3	i
CCCCCCNc1nc(Cl)nc(NC(C)(C)CO)n1
    1.2	0.72	1.7	1.5	.	1.3	i
CCC1C(=O)N=C(SCC(=O)NC2CCCCC2)NC1=O (stereo unspecified)
    2.6	0.69	5.2	8.0	-9%	1.3	i
COc1ccc(NC(=O)C(=O)NNC(=O)c2ccc(Cl)cc2Cl)cc1
    2.5	.	-0.4	.	.	-1.8	i
N#CCC(=O)Nc1ccc(C(=O)NCCC(c2ccccc2)c2ccccc2)cc1
    ?	0.67	3.2	0.3	.	0.8	i
O=S(=O)(Nc1cccc(C(F)(F)F)c1)c1cccnc1
    -2.3	0.71	-0.5	1.6	17%	.	.
COc1cccc(C(=O)N/N=C(\C)c2ccc(NC(=O)Cc3ccccc3)cc2)c1OC
    -2.4	.	4.4	.	.	-0.5	i
OCCN1CCN(c2ncnc3c2c(-c2ccccc2)cn3-c2ccc(Br)cc2)CC1
    -1.1	0.63	1.5	4.7	.	12	.
COc1ccccc1CNC(=O)CNC(=O)c1sc2ccccc2c1Cl
    2.3	0.69	-0.5	-4.2	-12%	-0.2	i
COCCn1c(SCC(=O)NC2CC2)nc2ccccc21
    .	0.65	-0.3	-0.9	.	2.6	i
Cc1ccc(-c2csc(NC(=O)CCNC(=O)c3ccccc3Cl)n2)cc1
    -1.2	0.67	0.6	3.3	.	-0.4	i
Cc1c(C(=O)N2CCN(Cc3ccccc3)CC2)sc2ncnc(N3CCOCC3)c12
    0.3	0.69	1.1	4.8	-2%	.	.
CC1CCc2c(C(=O)Nc3cccc(-c4nn[nH]n4)c3)csc2C1 (stereo unspecified)
    -4.0	0.67	-3.3	1.8	26%	-9.7	i
Cc1ccc(C)c(NC(=O)CN(C)C(=O)CCN2C(=O)c3ccccc3C2=O)c1
    1.2	0.74	-2.8	3.7	0%	.	.
CN(CC(=O)NCCCn1ccnc1)S(=O)(=O)c1ccc(Cl)cc1
    .	0.64	3.6	1.4	.	2.2	i
Cc1cc(C(=O)Nc2ccc3[nH]ccc3c2)no1
    -1.7	0.63	-1.1	2.7	.	2.1	i
O=C(Nc1ccon1)c1ccc(S(=O)(=O)N2CCCCCC2)cc1
    2.4	0.66	-0.8	-1.7	5%	.	.
COc1ccc(-n2c(=O)c3ccccc3n(Cc3ccccc3F)c2=O)cc1OC
    -1.2	0.68	3.3	2.0	-6%	-2.7	i
CC1=NN(C(C)C)C(=O)C1
    -0.4	0.66	-1.2	1.9	1%	.	.
